RE007 growth inh: less growth of the S. pombe RE007 Vpr strain. S. pombe RE007 Vpr strain, BacTiter-Glo ATP luminescence, 24 h; control for the full effect not named in the record. Potency, µM (doses to about 92.2 µM), for inactives: at the top dose activity change, negative = less growth. hit rate 0.21% among 360,000; active = well fitted falling curve with a large enough effect; inconclusive = small, poorly fitted or top-dose-only effect; inactive = no such curve, though single readings can be large or run the other way;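 note: % is set by controls: 0 for no effect and ±100 for the full control effect; nearly all actives have a fitted effect of over 50% in size; the assay follows cell death caused by Vpr and the record does not say whether a fall means rescue or toxicity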
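Fission yeast strain RE007, carrying one chromosomally integrated HIV-1 vpr copy, was seeded at OD 0.01 in PMG+AL medium with 23 nL pinned compound. After 24 h at 30 °C and 99% humidity, viability was read by BacTiter-Glo luminescence.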
SARS PLpro yeast: inhibitors of SARS-CoV papain-like protease in yeast | S. cerevisiae expressing SARS-CoV PLpro, growth rescue; control for the full effect not named in the record | Potency, µM (highest dose often 32.9 µM), without a hit: top-dose activity, positive = growth rescue | hit rate 0.19% among 330,000 | AID 485353; note: 0% is about no effect; nearly all actives have a fitted effect of over 55% in size; growth read by luminescence after 48 h
Cruzain inh Det: cruzain (T. cruzi) inhibition with detergent; P25779; purified cruzain, Z-FR-AMC fluorescence, 0.01% Triton; Potency, µM, for the others: max response, negative = inhibition, actives largely listed as inhibitors; hit rate 0.43% among 200,000; active = well fitted curve in the direction sought with a large enough effect; inconclusive = small, poorly fitted or top-dose-only effect, or another doubt; inactive = no such curve, though single readings can be large; an effect the other way counts as inactive or inconclusive;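 note: plate controls were neutral wells for no effect and buffer without enzyme for full effect; nearly all actives have a fitted effect of over 40% in size; top concentration of the series not given in the record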
Target sequence (P25779 123-467 limits assumed): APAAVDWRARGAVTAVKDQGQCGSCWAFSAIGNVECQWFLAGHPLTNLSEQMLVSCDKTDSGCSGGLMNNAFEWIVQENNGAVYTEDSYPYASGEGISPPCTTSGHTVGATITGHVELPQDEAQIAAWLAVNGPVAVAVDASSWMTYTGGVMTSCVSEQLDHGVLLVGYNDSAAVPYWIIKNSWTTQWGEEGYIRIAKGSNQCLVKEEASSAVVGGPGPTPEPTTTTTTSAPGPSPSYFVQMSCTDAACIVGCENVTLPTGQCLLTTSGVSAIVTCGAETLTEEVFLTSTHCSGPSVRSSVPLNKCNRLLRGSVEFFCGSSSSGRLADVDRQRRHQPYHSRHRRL
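Compounds were screened in titration against cruzain (1.5 nM) with 0.01% Triton X-100 to counter colloidal aggregation. Activity was the AMC fluorescence increase over 60 s after adding 2 uM Z-FR-AMC at pH 5.5.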
MARV entry inh: blocks Marburg virus binding to or entry into cells. Marburg virus pseudotyped entry inhibition, cell reporter; control for the full effect not named in the record; about a third of the inactives were read at about 46 µM. Potency, µM (titrated, usually from 37.8 µM), without a hit: top-dose activity change, negative = inhibition, hits mostly inhibitors. hit rate 1.8% among 300,000. AID 540276; active = well fitted inhibition curve with a large enough effect; inconclusive = small, poorly fitted or top-dose-only effect, or effect the other way; inactive = flat fitted curve, though single readings scatter; tested in HEK293 cells; about a fifth of its hits are not listed in these tables; note: % is set by controls: 0 for no effect and ±100 for the full control effect; luciferase read-out
NS1 inh: influenza NS1 inhibition; S. cerevisiae slowed by influenza A NS1, growth recovery by OD600; Potency, µM (doses to about 46.1 µM), inactives show at the top dose activity, positive = more growth; hit rate 0.4% among 270,000; note: actives are rising curves; nearly all actives have a fitted effect of over 50% in size
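Growth recovery, yeast-based: influenza A NS1 expressed in S. cerevisiae causes slow growth, and suppressors are detected by OD600. The parent strain without NS1 is used as positive control.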
Cruzain inh noDet: cruzain (T. cruzi) inhibition without detergent; P25779; purified cruzain, Z-FR-AMC fluorescence, no detergent; Potency, µM, inactives show max response, negative = inhibition, most hits filed as inhibitors; hit rate 2.3% among 200,000; active = well fitted curve in the direction sought with a large enough effect; inconclusive = small, poorly fitted or top-dose-only effect, or another doubt; inactive = no such curve, though single readings can be large; an effect the other way counts as inactive or inconclusive;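 note: plate controls were enzyme without inhibitor for no effect and buffer without enzyme for full effect; nearly all actives have a fitted effect of over 40% in size; top concentration of the series not given in the record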
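Detergent-free condition (0.00005% Triton X-100) in acetate buffer pH 5.5 with DTT. 1.5 nM enzyme and compound were pre-mixed 15 min, then 2 uM Z-FR-AMC substrate added; reaction progress from fluorescence change between first and third reads (60 s).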
StopGo reporter: lowers the luciferase signal of an FMDV 2A StopGo reporter | Potency, µM (doses to about 57.9 µM), for the others: at the highest dose signal change, negative = less light | human cells with a luciferase reporter of 2A StopGo recoding; control for the full effect not named in the record | hit rate 1.2% among 410,000; active = well fitted falling curve with a large enough effect; inconclusive = small, poorly fitted or top-dose-only effect; inactive = no such curve, though single readings can be large or run the other way; tested in HEK293T cells; note: % is set by controls: 0 for no effect and ±100 for the full control effect; nearly all actives have a fitted effect of over 45% in size; luciferase light after 4 h
Lassa entry inh: blocks Lassa virus binding to or entry into cells | Lassa virus pseudotype entry inhibition, cell reporter; control for the full effect not named in the record | Potency, µM (doses to about 37.9 µM), without a hit: at the highest dose activity change, negative = inhibition, most hits filed as inhibitors | hit rate 1.2% among 300,000; active means well fitted inhibition curve with a large enough effect; inconclusive means small, poorly fitted or top-dose-only effect, or effect the other way; inactive means flat fitted curve, though single readings scatter; tested in HEK293 cells; note: % is set by controls: 0 for no effect and ±100 for the full control effect; nearly all actives have a fitted effect of over 50% in size; luciferase read-out
* hit, by the source's call; & = joins results of further samples; [ ] = dose if it differs, or a comment. Unless noted, calls come from the whole dose curve; as a rule, active means well fitted rising curve with a large enough effect; inconclusive means small, poorly fitted or top-dose-only effect; inactive means no such curve, though single readings can be large or run the other way. Potency is the fitted concentration of half-maximal effect. Rows were taken by chance (roughly 4.8% active in at least one column).

`OC(COc1cccc2ccccc12)CN1CCN(c2cccc(Cl)c2)CC1` (stereo not given) gave RE007 growth inh -6%, SARS PLpro yeast -4%, NS1 inh -54% and StopGo reporter 10%.
Screening CCCCc1nn2c(=O)cc(COC(=O)c3ccc(NC(=O)c4ccccc4Cl)cc3)nc2s1 returned Cruzain inh Det 0.4%, Cruzain inh noDet -10%, StopGo reporter 20% and Lassa entry inh -1%[46.1 µM].
CCc1cccc(C)c1NC(=O)Nc1c(Br)cnn1C was read as RE007 growth inh 11%, SARS PLpro yeast 0%, NS1 inh 3% and StopGo reporter -10%.
Screening COc1cccc2cc(-c3nnc(SCC(=O)Nc4cc(C(F)(F)F)ccc4Cl)n3N)oc12 returned RE007 growth inh 8%, SARS PLpro yeast 6%, Cruzain inh Det 0.2%, MARV entry inh -19%&-19%, NS1 inh -38%, Cruzain inh noDet inconclusive, StopGo reporter -18% and Lassa entry inh -15%.
For CCOc1ccc(CCNC(=O)CS(=O)Cc2nc(-c3ccc(OC)c(OC)c3)oc2C)cc1OCC (stereo not given) the results were RE007 growth inh -24%, SARS PLpro yeast 3%, NS1 inh -6% and StopGo reporter -2%.
For CC(/C=C1\SC(=S)N(NS(=O)(=O)c2ccc(C)cc2)C1=O)=C\c1ccccc1 the results were RE007 growth inh 1%, SARS PLpro yeast -8%, MARV entry inh -4%[46.1 µM], NS1 inh -14%, StopGo reporter -4% and Lassa entry inh 25%.
CC(=O)N1CCN(C(=O)c2ccc(Cl)c(S(=O)(=O)N3CC(C)OC(C)C3)c2)CC1 (stereo not given) was read as RE007 growth inh 1%, SARS PLpro yeast -19%, MARV entry inh 4%, StopGo reporter 2% and Lassa entry inh 15%.
Screening Cc1ccc(S(=O)(=O)N2CCN(C3CC(=O)N(Cc4ccccc4)C3=O)CC2)cc1C (stereo not given) returned RE007 growth inh -2%, SARS PLpro yeast -10%, Cruzain inh Det -1.8%, MARV entry inh 9%, NS1 inh 2%, Cruzain inh noDet inconclusive, StopGo reporter inconclusive and Lassa entry inh 4%.
For CC(NS(=O)(=O)c1ccc(Br)cc1)C(N)=O (stereo not given) the results were RE007 growth inh -17%, SARS PLpro yeast 2%, Cruzain inh Det 0.2%, MARV entry inh 3%, NS1 inh 3%, Cruzain inh noDet -13%, StopGo reporter 25% and Lassa entry inh -1%.
For O=c1[nH]c(CSc2ncccn2)nc2c1cnn2-c1ccccc1 the results were RE007 growth inh 10%, SARS PLpro yeast 5%, Cruzain inh Det 3.4%, MARV entry inh 12%, NS1 inh 13%, Cruzain inh noDet 10%, StopGo reporter -14% and Lassa entry inh 3%.
COc1ccc(NC(=O)CN(C)C(=O)/C=C/c2cn(Cc3ccccc3)nc2-c2cccnc2)cc1 was read as RE007 growth inh -17%, SARS PLpro yeast 10%, MARV entry inh -3%, StopGo reporter -15% and Lassa entry inh 18%.
Cc1cc(C)nc(SCC(=O)Nc2nc(-c3ccccc3)c(-c3ccccc3)o2)n1 was read as RE007 growth inh 17%, SARS PLpro yeast -3%, Cruzain inh Det -4.3%, MARV entry inh -3%, NS1 inh 18%, Cruzain inh noDet inconclusive, StopGo reporter -27% and Lassa entry inh 1%.
For CC1CCN(C(=O)CN(c2ccccc2)S(=O)(=O)N(C)C)CC1 the results were RE007 growth inh -8%, SARS PLpro yeast 2%, MARV entry inh 11%, NS1 inh 3%, StopGo reporter 19% and Lassa entry inh 17%[46.1 µM].
Screening CC(=O)c1cccc(NC(=O)NCc2cccnc2)c1 returned RE007 growth inh 8%, Cruzain inh Det 1.5%, MARV entry inh 29%, NS1 inh 9%, Cruzain inh noDet 11%, StopGo reporter 30% and Lassa entry inh 15%.
`CCCC(=O)NCCc1ccc(F)cc1` gave RE007 growth inh 9%, SARS PLpro yeast -1%, Cruzain inh Det 12%, MARV entry inh 0%, NS1 inh 10%, Cruzain inh noDet 5%, StopGo reporter 0% and Lassa entry inh -26%.
`Cn1cc(CNC(=O)Nc2ccc3c(c2)OCO3)cn1` gave RE007 growth inh 1%, SARS PLpro yeast 7%, Cruzain inh Det -1.8%, MARV entry inh 6%, NS1 inh 5%, Cruzain inh noDet -4%, StopGo reporter 64%[activator] and Lassa entry inh 15%.
For CS(=O)(=O)c1ccc(Cl)c(NC(=O)COC(=O)COc2ccc3c(c2)CCC3)c1 the results were RE007 growth inh 6%, SARS PLpro yeast -2%, MARV entry inh 5%[46.1 µM], StopGo reporter -6% and Lassa entry inh 16%.
Screening COc1ccc(/C(C)=N/Nc2ccc(C(=O)O)cc2)c(OC)c1 returned RE007 growth inh -7%, SARS PLpro yeast 12%, Cruzain inh Det -9.2%, MARV entry inh inconclusive, NS1 inh 4%, Cruzain inh noDet -4%, StopGo reporter 49%[activator] and Lassa entry inh inconclusive.
Screening OCCNc1nc(OCC(F)(F)F)nc(N2CCN(C34CC5CC(CC(C5)C3)C4)CC2)n1 returned RE007 growth inh 0%, SARS PLpro yeast 0%, Cruzain inh Det -0.2%, MARV entry inh -28%[46.1 µM], NS1 inh -2%, Cruzain inh noDet 3%, StopGo reporter 0% and Lassa entry inh -7%.
`Cc1ccc(Oc2nnc(-c3ccccc3)c3ccccc23)cc1` gave RE007 growth inh -3%, SARS PLpro yeast 2%, Cruzain inh Det 0.1%, MARV entry inh 5%, NS1 inh 3%, Cruzain inh noDet -10%, StopGo reporter 3% and Lassa entry inh 0%.
For O=C(NCCS(=O)(=O)c1ccc(Cl)cc1)c1ccc(F)cc1 the results were RE007 growth inh 5%, SARS PLpro yeast 1%, MARV entry inh 2%[46.1 µM], StopGo reporter -15% and Lassa entry inh -13%.
`O=C(Cc1ccccc1)N1CCN(C(=O)c2cccs2)CC1` gave RE007 growth inh 38%, SARS PLpro yeast 12%, Cruzain inh Det 6.0%, MARV entry inh 1%, NS1 inh 0%, Cruzain inh noDet 2%, StopGo reporter -7% and Lassa entry inh 15%.
For c1ccc(NCCCNc2ccccc2)cc1 the results were RE007 growth inh inconclusive, SARS PLpro yeast -2%, Cruzain inh Det -2.8%, MARV entry inh 0%[46.1 µM], NS1 inh 17%, Cruzain inh noDet -6%, StopGo reporter 3% and Lassa entry inh 0%.
Screening Cc1n[nH]c(C)c1S(=O)(=O)N1CCCC(C(=O)NC2CCCCC2)C1 (stereo not given) returned RE007 growth inh 0%, SARS PLpro yeast 0%, NS1 inh 10% and StopGo reporter -25%.
`COc1ccc(C2C(C(=O)N3CCC(C(N)=O)CC3)CC(=O)N2c2ccc(OC)cc2)cc1` (stereo not given) gave RE007 growth inh 12%, SARS PLpro yeast 0%, MARV entry inh 2%[46.1 µM], StopGo reporter -4% and Lassa entry inh 18%[46.1 µM].
`O=C(Nc1ccc2c(c1)C(=O)NC2=O)c1cccc(C(F)(F)F)c1` gave RE007 growth inh -5%, SARS PLpro yeast -2%, NS1 inh -5% and StopGo reporter -17%.
COc1cccc(NC(=O)CCc2nc3c(C)nn(-c4ccc(C)cc4)c3n(C)c2=O)c1 was read as Cruzain inh Det 0.8%, Cruzain inh noDet 10%, StopGo reporter -19% and Lassa entry inh 10%[46.1 µM].
COc1ccc(C(=O)Nc2c(N)nc(SCC(=O)N3CCC(C)CC3)[nH]c2=O)cc1OC was read as RE007 growth inh -3%, SARS PLpro yeast -5%, Cruzain inh Det -2.2%, NS1 inh 9%, Cruzain inh noDet -11% and StopGo reporter -20%.
CCN(CC)c1cc(C)c2cc(NC(=O)c3ccccc3OC)ccc2n1 was read as RE007 growth inh -11%, SARS PLpro yeast 1%, Cruzain inh Det -7.7%, MARV entry inh inconclusive, Cruzain inh noDet 0%, StopGo reporter -15%&-25% and Lassa entry inh inconclusive.
`COc1ccc(NC(=O)Nc2ccc(F)cc2)c(C)c1` gave RE007 growth inh 7%, SARS PLpro yeast 0%, NS1 inh 9% and StopGo reporter 22%.
`Cc1cc(-c2nnc(SCC(=O)c3ccc4c(c3)OCCO4)o2)no1` gave RE007 growth inh 3%, SARS PLpro yeast -2%, Cruzain inh Det -7.8%, MARV entry inh 4%, NS1 inh 21%, Cruzain inh noDet 2%, StopGo reporter -13% and Lassa entry inh 18%.
CCn1c(C)nc2cc(C(=O)N/N=C/c3ccc(O)cc3)ccc21 was read as RE007 growth inh 4%, SARS PLpro yeast -15%, Cruzain inh Det -8.7%, MARV entry inh inconclusive, NS1 inh 0%, Cruzain inh noDet -7%, StopGo reporter 32%[activator] and Lassa entry inh inconclusive.
Screening CC(=O)c1ccc(NC(=O)Nc2ccc3c(c2)nc(C)n3C)cc1 returned RE007 growth inh -23%, SARS PLpro yeast 1%, MARV entry inh inconclusive, NS1 inh -1%, StopGo reporter 72%[activator] and Lassa entry inh -1%.
`Cc1cccc(NC(=O)Nc2ccc(C#N)cc2)n1` gave RE007 growth inh -3%, SARS PLpro yeast 2%, Cruzain inh Det 4.4%, MARV entry inh 1%, NS1 inh 2%, Cruzain inh noDet inconclusive and StopGo reporter 30%.
Screening Cn1c(=O)c2c(ncn2CCOc2cccc(Br)c2)n(C)c1=O returned RE007 growth inh 4%, SARS PLpro yeast 3%, NS1 inh -3% and StopGo reporter inconclusive.
For CCc1ccc(NC(=O)N2CCN(Cc3nc4ccc(C)cc4o3)CC2)cc1 the results were Cruzain inh Det -2.1%, Cruzain inh noDet inconclusive, StopGo reporter inconclusive and Lassa entry inh 0%[46.1 µM].
CS/C(N)=N/N=C/c1ccc([N+](=O)[O-])cc1 was read as RE007 growth inh 0%, SARS PLpro yeast -1%, Cruzain inh Det -7.2%, MARV entry inh 14%, NS1 inh -25%, Cruzain inh noDet -20%, StopGo reporter 64%[activator] and Lassa entry inh 18%.
For O=C(Nc1cccc(C(F)(F)F)c1)c1cc2c(s1)-c1ccccc1OC2 the results were RE007 growth inh -1%, SARS PLpro yeast 11%, Cruzain inh Det -1.8%, MARV entry inh -4%, NS1 inh -4%, Cruzain inh noDet 13%, StopGo reporter -14% and Lassa entry inh inconclusive.
CCCCN(CCCC)CC(O)COc1ccccc1C(=O)Nc1ccccc1 (stereo not given) was read as RE007 growth inh -2%, SARS PLpro yeast 1%, MARV entry inh inconclusive, NS1 inh -2%, StopGo reporter -23% and Lassa entry inh inconclusive.

Bioassay records as filed in PubChem.
